Screening data deposited in PubChem BioAssay by several laboratories.
CSC inhib = cancer stem cell inhibition; AID 2717; 1.1% of 300,000 active; cancer stem cell-like cells viability, luminescence; inhibition, % at 7.5 µM;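 active means mean at 75% or more and at least half the replicates too; inconclusive means mean and replicates disagree; tested in HMLE shEcad cells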;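 further: 0% = median of negative and 100% = median of positive control wells; the first replicate is given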
PABP polyA inh = blocks human PABP binding to poly(A) RNA; fluorescence polarization; inhibition, % at 35 µM; 1% of 290,000 active;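 active means 50% or more with normal probe brightness, or confirmed in later tests; inconclusive means above 50% with abnormal brightness, or retests that disagree; inactive means below 50% or failed in later tests; about a fifth of its hits are not listed in these tables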;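 further: calls also rest on retests at 20 µM and on dose response follow-up; controls were probe without protein and protein plus probe with vehicle; some compounds called inactive have numbers as strong as hits; many hits fall short of the cut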
Target sequence (P11940 whole entry, looked up): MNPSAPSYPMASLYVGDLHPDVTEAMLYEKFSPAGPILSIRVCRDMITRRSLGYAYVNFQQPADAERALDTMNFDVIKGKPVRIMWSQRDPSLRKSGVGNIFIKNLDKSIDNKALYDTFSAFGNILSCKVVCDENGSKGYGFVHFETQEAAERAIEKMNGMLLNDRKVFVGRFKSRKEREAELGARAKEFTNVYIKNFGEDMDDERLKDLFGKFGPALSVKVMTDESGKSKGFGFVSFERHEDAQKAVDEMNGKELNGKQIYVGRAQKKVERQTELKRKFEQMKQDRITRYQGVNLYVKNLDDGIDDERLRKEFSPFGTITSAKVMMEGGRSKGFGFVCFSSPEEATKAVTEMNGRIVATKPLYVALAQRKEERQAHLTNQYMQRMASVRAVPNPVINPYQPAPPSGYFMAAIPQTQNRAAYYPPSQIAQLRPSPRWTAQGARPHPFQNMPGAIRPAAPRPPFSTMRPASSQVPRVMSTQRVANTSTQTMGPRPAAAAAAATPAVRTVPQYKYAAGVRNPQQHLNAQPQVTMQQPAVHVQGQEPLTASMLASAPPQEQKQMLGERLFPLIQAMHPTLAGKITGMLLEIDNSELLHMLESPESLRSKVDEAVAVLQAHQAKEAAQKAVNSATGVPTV
eIF4H FP inh = inhibitors of RNA binding by human eIF4H. eIF4H fluorescence polarization binding assay. 0.94% of 290,000 active. inhibition, % at 35 µM. Q15056;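 active means 50% or more with normal probe brightness, or confirmed in later tests; inconclusive means above 50% with abnormal brightness, or retests that disagree; inactive means below 50% or failed in later tests; about a fifth of its hits are not listed in these tables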;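 further: calls also rest on retests at 20 µM and on dose response follow-up; 0% = protein and probe with vehicle and 100% = probe without protein; strong numbers were not always called active; many hits fall short of the cut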
HIV Env fusion = blocks HIV Env-driven cell-cell fusion; HeLa-JRFL Env/CEM21 cell fusion, luciferase; inhibition, % at 12.3 µM; 1.1% of 360,000 active; AID 651610;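 active means mean replicate inhibition score of at least 50 and every replicate individually at or above 50; inconclusive means only one of the two criteria met; inactive means mean below 50 and not all replicates reaching 50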;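 further: 0% = plate neutral controls and 100% = maraviroc near 300 nM; one replicate is shown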
Rce1 inhib = inhibitors of yeast Ras-converting enzyme; Q03530; yeast membranes, quenched prenylated peptide cleavage fluorescence; calls only; 0.27% of 290,000 active; AID 2563;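 active means fall in fluorescence gain of 50% or more versus controls, with final raw signal at or below 3038400; inconclusive means same 50% fall but final raw signal above 3038400; inactive means fall in fluorescence gain under 50%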;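 further: plate controls were neutral control wells for no effect and wells lacking membranes for full effect; tested at 10 µM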
Yeast UUG start = alters start codon recognition fidelity in yeast; S. cerevisiae UUG-firefly luciferase reporter, luminescence/redox ratio; activity score, % at 18.7 µM; 0.13% of 350,000 active; AID 602363;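 active means replicate mean at a twofold rise or more, about +100% in these data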;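 further: firefly luciferase made from a UUG start codon reports start codon fidelity; reporter light over untreated wells divided by growth signal over untreated wells; some hits fall short of that in this replicate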
MT1-MMP act inh = inhibitors of human MT1-MMP activation | HT1080 RFP-PRO-GFP cells, GFP/RFP ratio fluorescence, overnight; percent of plate control window, DMSO zero | GFP/RFP ratio change, % at 20 µM | 0.061% of 360,000 active;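 active means GFP/RFP ratio change of at least 30% with cell ATP level not reduced by more than half and red fluorescence within 50% of control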; further: strong numbers were not always called active
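Assay system: HT1080 cells carrying an RFP-PRO-GFP reporter | Dosing: Single dose of 20 µM compound, 1% DMSO final | Incubation: Cells overnight before dosing, compound overnight, 37 °C, 5% CO2 | Evaluation: GFP/RFP fluorescence ratio | Control set: DMSO and RFP-L50D-GFP cell wells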
eIF4H FP inh retest = recorded beside eIF4H FP inh, whose call it bears; inhibition, %; compound at 20 µM; confirmation average;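 mean of two retest wells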
PABP polyA inh retest = recorded beside PABP polyA inh, whose call it bears; inhibition, %; compound at 20 µM; confirmation repeats;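 mean of two retest wells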
MT1-MMP act inh RFP = also measured in MT1-MMP act inh; calls as there; RFP signal change, %; measured here: RFP expression control read;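 0 = vehicle wells; hits needed this value within 50% of zero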
Starred values were filed as active, the others as inactive; i = inactive; ? = inconclusive; / = no result given; + = active, no number; & = joins results of further samples; [ ] = remark or other dose.

SMILES	CSC inhib	PABP polyA inh	eIF4H FP inh	HIV Env fusion	Rce1 inhib	Yeast UUG start	MT1-MMP act inh	MT1-MMP act inh RFP	others
CN(C(=O)c1ccc2c(c1)S(=O)(=O)N=C1CCCCCN12)c1ccccc1	-3	/	/	/	i	-1	15	-2
COc1ccc(S(=O)(=O)N2CCCN(Cc3cccc(F)c3)CC2)cc1	9	-2	2	-2	i	8	-8	-2
CC(NC(=O)OC1CCCCC1)N1C(=O)C2C3C=CC(C3)C2C1=O (stereo unspecified)	/	25	2	/	i	/	/	/
CCOC(=O)C1CCCN(C(=O)COC(=O)C2=COCCO2)C1 (stereo unspecified)	/	4	-2	/	i	/	3	5
Cc1cc(C)n(C2CCCCC2OC(=O)CCc2ccccc2)n1 (stereo unspecified)	-11	1	11	-24	i	0	-1	0
CN(C)S(=O)(=O)c1ccc(C(=O)Nc2ccnn2C2CCCCC2)cc1	-2	4	-3	37	i	-2	1	-8
O=C(Cc1ccc(Cl)cc1)Nc1nc2ccccc2[nH]1	4	1	1	/	i	-10	-6	-4
O=S(=O)(c1ccc(F)cc1)n1ccc(-c2cnc(-c3ccccc3)s2)n1	7	?	?	-91	i	/	-1	-6
CCC1CCCCN1CCCNC(=O)c1cc2c(=O)oc3ccc(C)cc3c2s1 (stereo unspecified)	13	-10	1	1	i	-6	0	0
COc1cc(/C=C/C(=O)c2ccc3c(c2)OCCO3)cc(OC)c1OC	45	8	-1	-52	i	10	0	-19
Cc1ccccc1NC(=S)NCCc1c[nH]c2ccccc12	7	-8	-3	6	i	/	1	0
CCCC(=O)NC(c1ccco1)c1cc([N+](=O)[O-])c2cccnc2c1O (stereo unspecified)	77*	-5	36	-1	i	/	-24	-11
CCOc1cc(CN2CCCCCC2)ccc1OC	11	6	14	7	i	6	2	-2
O=C1CCCC(O)=C1N=Nc1ccc2ncsc2c1	-14	-17*	69*	1	+	-8	4	3	eIF4H FP inh retest=94*;PABP polyA inh retest=53*
CCN(CC(=O)Nc1ccccc1OC)C(=O)c1ccc(NC(=O)c2cccs2)cc1	-9	/	/	/	/	6	-4	2
COc1ccc(CCNC(=O)CCCOc2ccc(C)cc2)cc1OC	-12	1	-2	/	i	4	-4	-12
C[C@H](CO)N1C[C@H](C)[C@@H](CN(C)C(=O)Nc2ccccc2)Oc2ccc(NC(=O)Cn3cnnn3)cc2C1=O	/	/	/	-182[16.7 µM]	/	-2&-17	4	5
O=C(O)Cc1ccc(O)cc1	-2	/	/	-5	i	-3	-1	8
c1cnc(N2CCN(Cc3ccc4c(c3)OCO4)CC2)cn1	-18	74	-4	-1	/	/	0	0	eIF4H FP inh retest=26;PABP polyA inh retest=24
CCCNC(=O)C1(CC2CC(c3ccccc3)=NO2)CCN(C(=O)c2ccccc2)CC1 (stereo unspecified)	6	/	/	-28	/	-4	2	0
Cn1c(=O)c2c(nc(NCc3ccc4c(c3)OCO4)n2C)n(C)c1=O	-3	-1	-2	/	i	-18	3	-3
N=c1n(CCN2CCOCC2)c2ccccc2n1CC(=O)c1cccc([N+](=O)[O-])c1	-20	13	-1	4	i	-11	2	-4
CCOC(=O)c1c(C)[nH]c(C)c1C(=O)CSc1nc2ccccc2n1CCOC	2	-1	1	2	i	-7	3	6
Cc1cc(=O)oc2c(C)c(OC(C)C(=O)NCCCN3CCOCC3)ccc12 (stereo unspecified)	-2	/	/	-6	i	-18	0	4
C=CCc1ccccc1OCCn1ccnc1	-11	0	0	-8	i	-12	3	6
SMILES	CSC inhib	PABP polyA inh	eIF4H FP inh	HIV Env fusion	Rce1 inhib	Yeast UUG start	MT1-MMP act inh	MT1-MMP act inh RFP	others
CC(C)CCN1CCN(Cc2ccc(C#CCCO)cc2)CC1CCO (stereo unspecified)	-4	-1	4	17	i	/	0	1
COC(=O)c1ccccc1NC(=O)C1CC(=O)N(c2ccccc2)C1 (stereo unspecified)	-6	-3	-7	1	i	/	2	0
Cc1ccc(C)c(C(O)c2ncc(-c3cccc(C(F)(F)F)c3)[nH]2)c1 (stereo unspecified)	/	/	/	-27	/	-23	5	-3
O=C1c2ccccc2-c2nc3ccccc3cc21	-7	10	-10	-37	i	-31	-5	-4
CC1=C(C#N)C2(O)C(=O)c3ccccc3C2(O)N1 (stereo unspecified)	-6	-4	-1	-29	i	18	3	2
Cc1cn(CCC(=O)Nc2ccccc2N2CCOCC2)c2ccccc12	-16	3	-4	-9	i	/	-3	3
Cc1ccc(NC(=O)C(=O)NCc2ccc(/C=C(/C#N)C(=O)NCc3cccnc3)o2)cc1	-4	-13	-10	/	i	-15	8	-8
Cc1cc(NC(=O)CC#N)n(-c2ccccc2)n1	-2	11	78*	0	i	/	1	1	eIF4H FP inh retest=52*;PABP polyA inh retest=26
CC(Oc1ccccc1Cl)C(=O)/C=C/N(C)C (stereo unspecified)	5	0	-5	-11	i	-3	-6	3
CCCCNC(=O)c1nc2ncc(Br)cn2n1	-11	8	0	-12	i	3	-2	1
O=C(CN1CCCc2ccccc21)N1CCc2ccccc21	-2	6	-8	3	i	1	-13	17
CCOC(=O)Cc1cnc(NC(=O)CSc2nc(C)cc(C)n2)s1	-3	5	-3	7	i	/	2	0
Cc1nc(CCNC(=O)CC2C(=O)NCCN2Cc2ccccc2F)sc1C (stereo unspecified)	-19	13	24	8	i	-10	-5	8
CC1/C(=N/O)C(CN(C)C)C2CC1C2(C)C (stereo unspecified)	4	-1	-8	/	i	-11	5	6
O=C(CSc1nnc(-c2ccc(F)cc2)o1)N1CCCCC1	-18	2	-15	-33	i	-30	-2	2
CC(C)(C)OC(=O)NC(Cc1ccccc1)C(=O)N1CCC(C(=O)NCC(=O)Nc2ccc(F)cc2)CC1 (stereo unspecified)	-19	?	?	-4	i	2	-4	0
CC(O)[C@@]1(O)CC[C@H]2[C@@H]3CC[C@H]4C[C@@H](O)CC[C@]4(C)C3=CC[C@@]21C (stereo partly specified)	-8	/	/	-17	i	10	1	2
CCc1ccc(C(O)c2ncc(-c3cccc(C(F)(F)F)c3)[nH]2)cc1 (stereo unspecified)	/	/	/	9	/	-17	1	-12
CC(N=Cc1nc(-c2ccccc2)oc1O)c1ccccc1 (stereo unspecified)	6	-7	-7	23	i	5	4	-9
C=CCn1c(C2CC(=O)N(c3ccc(C)cc3)C2)nc2ccccc21 (stereo unspecified)	-13	7	2	22	i	-4	-4	-6
O=C(NCCCN1CCCCC1)C1CCC(=O)N1CCc1ccccc1 (stereo unspecified)	-8	-1	-1	/	i	2	-1	1
CC(C)OC(=O)/C(=C\c1cccnc1)NC(=O)c1ccccc1	-20	-2	-5	14	i	/	2	-1
Cc1cc(/C=C\c2ccccc2)nc2ccccc12	-1	-1	-9	-76	/	/	-3	-4
COC(=O)C1=NN(C(=O)c2ccccc2)C(C)(O)C1 (stereo unspecified)	0	-17	-4	/	i	-21	-6	-4
O=C(CCc1nnc(Cc2ccc(-c3ccccc3)cc2)o1)NCCc1cccnc1	-8	-14	-7	-2	i	/	5	0

Among those listed so far, these have a cyano group.
SMILES	CSC inhib	PABP polyA inh	eIF4H FP inh	HIV Env fusion	Rce1 inhib	Yeast UUG start	MT1-MMP act inh	MT1-MMP act inh RFP	others
CC1=C(C#N)C2(O)C(=O)c3ccccc3C2(O)N1 (stereo unspecified)	-6	-4	-1	-29	i	18	3	2
Cc1ccc(NC(=O)C(=O)NCc2ccc(/C=C(/C#N)C(=O)NCc3cccnc3)o2)cc1	-4	-13	-10	/	i	-15	8	-8
Cc1cc(NC(=O)CC#N)n(-c2ccccc2)n1	-2	11	78*	0	i	/	1	1	eIF4H FP inh retest=52*;PABP polyA inh retest=26

Sorted by molar mass (rising): part of the list above
SMILES	CSC inhib	PABP polyA inh	eIF4H FP inh	HIV Env fusion	Rce1 inhib	Yeast UUG start	MT1-MMP act inh	MT1-MMP act inh RFP	others
O=C1c2ccccc2-c2nc3ccccc3cc21	-7	10	-10	-37	i	-31	-5	-4
O=C(CN1CCCc2ccccc21)N1CCc2ccccc21	-2	6	-8	3	i	1	-13	17
CC(C)OC(=O)/C(=C\c1cccnc1)NC(=O)c1ccccc1	-20	-2	-5	14	i	/	2	-1
CC(O)[C@@]1(O)CC[C@H]2[C@@H]3CC[C@H]4C[C@@H](O)CC[C@]4(C)C3=CC[C@@]21C (stereo partly specified)	-8	/	/	-17	i	10	1	2

(further entries)
SMILES	CSC inhib	PABP polyA inh	eIF4H FP inh	HIV Env fusion	Rce1 inhib	Yeast UUG start	MT1-MMP act inh	MT1-MMP act inh RFP	others
N=c1c2c(-c3ccccc3)c(-c3ccccc3)n(Cc3ccccc3)c2ncn1CCCO	-1	6	-3	?	i	13	-15	-7
COCC1CCCN(C(=O)c2ccc3oc(Cc4ccc(Cl)cc4)nc3c2)C1 (stereo unspecified)	-8	-9	5	6	i	-34	-1	-12
CC(=O)c1cccc(NC(=O)CSc2nc(=O)n(CCN3CCOCC3)c3c2CCC3)c1	1	/	/	-9	i	0	5	4
O=C(CN1C(=O)/C(=C\C=C\c2ccccc2)SC1=S)Nc1ccc(F)cc1	2	15	3	11	i	/	0	7
Cc1ccccc1C(=O)NNC(=O)CCC(=O)Nc1cccc(Cl)c1C	8	0	4	21	i	-1	5	-10
Cc1ccc(-n2nnc3ccccc3c2=O)cc1C	-12	-8	5	/	i	-10	0	2
COC(=O)c1ccc(NC(=O)CN(c2ccc(C)cc2)S(=O)(=O)c2c(C)nn(C)c2C)cc1	-2	-6	-5	/	i	-13	0	-2
Nc1ccc2nc3c(=O)[nH]c(=S)[nH]c3nc2c1	11	?	?	-1	i	/	-135	6
O=C(COC(=O)c1ccc([N+](=O)[O-])cc1)NCCC1=CCCCC1	-16	/	/	0	/	0	6	3
C[C@]12c3[nH]c4ccc(Cl)cc4c3CCN1C(=O)[C@@H](CC(=O)NCCc1ccccn1)C[C@@H]2C(=O)N1CCOCC1	/	/	/	9	/	-15	4	4
COc1cccc(NC(=O)C(OC(=O)c2ccccc2NS(=O)(=O)c2cccs2)c2ccccc2)c1 (stereo unspecified)	/	-16	-8	9	i	/	0	-6
CCOc1cccc(CNCCCSc2ncccn2)c1	-16	29	-7	-6	i	-3	2	3
CSc1ccc(C2C(C#N)=C(N)Oc3cc4c(cc32)OCO4)cc1 (stereo unspecified)	50	1	-6	/	i	-10	-4	-5
CC1CN(c2ccc(NC(=S)Nc3ccc(N4CC(C)OC(C)C4)cc3)cc2)CC(C)O1 (stereo unspecified)	11	-2	-11	17	i	-33	3	-1
Cc1cc(C)cc(C(=O)NC(CC(N)=O)c2ccc(NC3CCCC3)c([N+](=O)[O-])c2)c1 (stereo unspecified)	6	-3	-10	0	i	-7	8	1

Structural class: the compounds so far with a Cl atom (5)
SMILES	CSC inhib	PABP polyA inh	eIF4H FP inh	HIV Env fusion	Rce1 inhib	Yeast UUG start	MT1-MMP act inh	MT1-MMP act inh RFP	others
O=C(Cc1ccc(Cl)cc1)Nc1nc2ccccc2[nH]1	4	1	1	/	i	-10	-6	-4
CC(Oc1ccccc1Cl)C(=O)/C=C/N(C)C (stereo unspecified)	5	0	-5	-11	i	-3	-6	3
COCC1CCCN(C(=O)c2ccc3oc(Cc4ccc(Cl)cc4)nc3c2)C1 (stereo unspecified)	-8	-9	5	6	i	-34	-1	-12
Cc1ccccc1C(=O)NNC(=O)CCC(=O)Nc1cccc(Cl)c1C	8	0	4	21	i	-1	5	-10
C[C@]12c3[nH]c4ccc(Cl)cc4c3CCN1C(=O)[C@@H](CC(=O)NCCc1ccccn1)C[C@@H]2C(=O)N1CCOCC1	/	/	/	9	/	-15	4	4
